TRPML1 ag: agonists of human TRPML1 channel. AID 624414. activation, % (no concentration beside the values). Q9GZU1. TRPML1-expressing cells, Ca2+ dye fluorescence, FDSS; host cell line not named in the record; reference of the full effect not given here. actives 0.12% (n = 410,000); in the data active = activation above about 50%; inconclusive = about 30% to 50%; inactive = below about 30%; note: 0% is about no effect; the text of the record puts the active cut at 80%
Target sequence (Q9GZU1 whole entry, looked up): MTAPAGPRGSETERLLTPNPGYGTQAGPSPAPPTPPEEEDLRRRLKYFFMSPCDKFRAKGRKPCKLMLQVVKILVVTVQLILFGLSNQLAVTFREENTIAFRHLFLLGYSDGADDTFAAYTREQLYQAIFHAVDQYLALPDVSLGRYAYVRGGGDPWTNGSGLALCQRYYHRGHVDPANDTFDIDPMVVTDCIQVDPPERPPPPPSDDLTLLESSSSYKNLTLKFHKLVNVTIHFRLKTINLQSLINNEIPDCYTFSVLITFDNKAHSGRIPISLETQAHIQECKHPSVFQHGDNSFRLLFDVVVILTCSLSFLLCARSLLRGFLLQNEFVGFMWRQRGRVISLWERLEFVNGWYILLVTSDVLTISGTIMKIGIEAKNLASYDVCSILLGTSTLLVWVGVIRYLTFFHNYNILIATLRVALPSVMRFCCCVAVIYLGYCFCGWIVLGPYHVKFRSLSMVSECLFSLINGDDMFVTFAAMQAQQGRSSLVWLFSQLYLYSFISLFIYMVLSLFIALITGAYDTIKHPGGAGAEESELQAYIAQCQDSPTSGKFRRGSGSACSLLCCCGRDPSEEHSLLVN
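Tet-induced TRPML1-DL cells, 1,500 per well, cultured overnight, were loaded with a no-wash Ca2+ dye for 45–90 min. Calcium fluorescence was recorded on the FDSS for 110 s after compound addition, before the EC80 agonist (4 uM 54-4) was added.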
Sfp inh: blocks B. subtilis Sfp PPTase activity. Potency, µM, inactives show max response, negative = inhibition, actives largely listed as inhibitors. Biochemical Sfp PPTase activity, qHTS. actives 3.5% (n = 310,000); active = well fitted inhibition curve with a large enough effect; inconclusive = small, poorly fitted or top-dose-only effect, or another doubt; inactive = no such curve, though single readings can be large or run the other way;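 note: the enzyme is Sfp with the accession as filed and its product quenches rhodamine fluorescence; potency is the fitted concentration of half-maximal effect; 0% = enzyme reaction without inhibitor and -100% = no enzyme wells; top concentration of the series not given in the record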
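Fluorescence-quenching assay: 15 nM Sfp-PPTase preincubated 15 min at room temperature with compound, then 5 uM rhodamine-CoA and 12.5 uM BHQ-2-labelled YbbR peptide added. Fluorescence (ex 525/em 598 nm) read at start and after 30 min; difference gives rate.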
TRPV1 PAM: enhances activation of the human vanilloid receptor TRPV1 | TRPV1-expressing cells, Fluo-8 calcium influx, capsaicin EC20 potentiation; host cell line not named in the record; control for the full effect not named in the record | Q8NER1 | potentiation, % at 8.33 µM | actives 0.02% (n = 320,000); active means potentiation above 80%; inconclusive means 30% to 80%; inactive means below 30%; note: 0% is about no effect
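Cells expressing TRPV1 were dye-loaded with Fluo-8 and read kinetically: 10 s baseline, 3 min after compound (agonist portion), then 2 min after EC20 capsaicin (allosteric enhancer portion). Calcium-bound dye fluorescence at 480/520 nm.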
PINK1 modulator: modulators of PINK1 expression; PINK1 immunofluorescence, high-content cytometry, 24 h; Potency, µM (series often up to 76.6 µM), without a hit: at the highest dose activation (PINK1 increase), most hits filed as activators; actives 0.2% (n = 410,000); AID 624263; active = well fitted activation curve with a large enough effect; inconclusive = small, poorly fitted or top-dose-only effect; inactive = flat fitted curve, though single readings scatter; cell line not stated here;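 note: potency is the fitted concentration of half-maximal effect; % of control where 0% means no effect; nearly all actives have a fitted effect of over 65% in size; a mitochondrial uncoupler was the plate control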
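PINK1 protein, normally rapidly degraded, was detected by immunofluorescence after 24 hour compound treatment of a stable cell line. Titration data (5 concentrations) came from laser-scanning cytometry, with CCCP-treated wells as controls.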
TRPML1 inh: blocks the human TRPML1 channel | Q9GZU1 | TRPML1-inducible cells, Ca2+ dye fluorescence, FDSS; stronger effect = lower value; inhibition of EC80 agonist-evoked calcium signal | activity change, negative = inhibition, % (concentration not given with the values) | actives 0.02% (n = 390,000); in the data active means activity change below about -50%; inconclusive means about -30% to -50%; inactive means above about -30%;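 note: stimulus is agonist 54-4 at its EC80 concentration; % is set by controls: 0 for no effect and ±100 for the full control effect; compound concentration not given in the record; the text of the record puts the active cut at -80%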
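Tet-induced TRPML1-DL cells loaded with Ca8 no-wash calcium dye were read kinetically on FDSS. Compound addition was followed by EC80 agonist 54-4 (4 uM final); inhibition was read over 110 s.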
Menin MLL FP FL: menin-MLL binding inhibition, fluorescein peptide; AID 1766; 290,000 tested, under 10 active; FP activity change, % at 61.4 µM; Fluorescence polarization, fluorescein-MLL peptide displacement from menin; inconclusive = falling polarisation curve, or a change in total fluorescence; inactive = total fluorescence flat and polarisation flat or rising; no compound was filed as active; the % refers to the polarisation; negative = inhibition;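 note: % of control where 0% means no effect; inhibitors lower the polarisation; unlabelled MLL peptide was the positive control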
ClpP mod: qHTS Assay for Activators of ClpP; actives 1.9% (n = 340,000); AID 651965, 2013; Potency, µM (highest dose often 57.5 µM), for inactives: at the top dose activity change, negative = active; purified B. subtilis ClpP, FRET peptide cleavage, 20 min; active = well fitted falling curve with a large enough effect; inconclusive = small, poorly fitted or top-dose-only effect; inactive = no such curve, though single readings can be large or run the other way; note: potency is the fitted concentration of half-maximal effect; the source files actives as falling curves though it sought activators and does not explain the sign; nearly all actives have a fitted effect of over 65% in size; many hits overshoot -100%
Target sequence (P80244 whole entry, looked up): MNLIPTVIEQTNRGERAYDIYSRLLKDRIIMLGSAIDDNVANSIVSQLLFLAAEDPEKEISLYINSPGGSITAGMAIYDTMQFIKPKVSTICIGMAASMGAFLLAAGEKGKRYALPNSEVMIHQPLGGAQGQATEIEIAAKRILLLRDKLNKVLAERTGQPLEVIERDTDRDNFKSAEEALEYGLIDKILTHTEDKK
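Purified B. subtilis ClpP, 10 microg/mL final in Tris/HCl pH8 with KCl, BSA, glycerol and Tween-20, cleaved an Abz/nitrotyrosine-quenched decapeptide. Fluorescence (ex 320, em 430) was read at 0 and 20 min at room temperature. Delta was normalized to 5.8 microM ADEP and DMSO/no-enzyme controls.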
Active calls of the source: *; ? = inconclusive; nt = not tested or not shown; & = joins results of further samples; [ ] = dose if it differs, or a comment.

Values run as follows: Sfp inh	TRPV1 PAM	TRPML1 ag	ClpP mod	PINK1 modulator	TRPML1 inh	Menin MLL FP FL
COC(=O)c1ccc2nc(-c3ccc(S(C)(=O)=O)cc3)cn2c1
  14%	?	-0.5	1.9%	12%	16	7.3
COC(=O)CCC(=O)Nc1ccc(OC)cc1
  0%	4	0.5	-1.3%	-0.2%	13	2.2
COc1cc2c(cc1Cl)/C(=C\CCN(C)C)c1ccccc1S2
  -18%	5	2.3	-3.1%	-1.8%	-10	1.9
CCC(=O)Nc1nnc(CCc2ccccc2)s1
  17%	20	-0.3	-15%	3.9%	10	-2.4
CC12CCC(=O)N1C(C(=O)NCc1ccccc1F)CS2 (configuration not stated)
  nt	11	1.2	nt	1.6%	2	nt
CCC(=O)N1Cc2cc(C(=O)NCc3cccc(F)c3)nc(-c3cccc(C4=CCCC4)c3)c2[C@H]1CCO
  nt	nt	0.2	-5.6%	3.4%	nt	nt
CCc1ccc(S(=O)(=O)Nc2c(NC3CCCCC3)c3ccccc3oc2=O)cc1
  8%	-18	?	-7.6%	-1.0%	4	nt
O=C(Cn1c(=O)c2ccccc2n(CC(=O)Nc2ccc(Cl)cc2)c1=O)NCCc1ccccc1
  nt	nt	1.1	1.6%	7.5%	-2	nt
COc1ccc(CCNC(=O)CNC(=O)N2CC(=O)Nc3ccccc32)cc1OC
  nt	nt	-0.1	-0.6%	0.7%	-9	nt
Cc1ccc(CCNC(=O)CN2CCN(Cc3ccc(Cl)cc3)C2=O)cc1
  nt	nt	-0.9	0.5%	1.4%	6	nt
CCc1ccccc1NC(=O)CN(c1cc(C(F)(F)F)ccc1Cl)S(=O)(=O)c1ccccc1
  nt	nt	2.1	-2.3%	3.2%	81	nt
CSc1nc(Oc2ccccc2)c2sccc2n1
  -18%	1	4.6	-0.6%	0.8%	14	-7.5
CC1=NN(C(N)=S)C(=O)C1N=Nc1c(Cl)cc([N+](=O)[O-])cc1Cl (configuration not stated)
  -1%	-1	-1.4	2.1%	?	-6	-4.8
CCCc1cc(=S)n2c([nH]c3ccccc32)c1C#N
  56µM*	2	2.3	nt	28µM*	-4	?
O=C(c1cccc(S(=O)(=O)N2CCCCCC2)c1)N1CCN(Cc2ccccc2)CC1
  nt	nt	-0.3	-0.1%	2.7%	-1	nt
CC(=O)N1Cc2cc(C(=O)NCc3cccc(F)c3)nc(-c3cccc(C4=CCCCC4)c3)c2[C@H]1CCO
  nt	nt	3.3	-5.8%	15%	nt	nt
O=C(O)Cn1cc(C(=O)C(F)(F)F)c2ccccc21
  29%	-2	-0.2	nt	1.4%	0	2.3
COc1cc(OC)c(OC)cc1CNC(=O)c1cc(S(=O)(=O)N(C)c2ccccc2OC)ccc1C
  nt	nt	0.5	-1.7%	-0.2%	-3	nt
COc1cccc(NC(=O)CN(C)C(=O)C(Sc2ccccc2)c2ccccc2)c1 (configuration not stated)
  nt	11	3.2	28µM*	-1.2%	22	nt
CC(C)(C)SCCNS(=O)(=O)c1ccccc1
  -6%	8	-0.2	-0.3%	nt	-7	3.9
CCOc1ccc2ccccc2c1CNCCc1ccc(S(N)(=O)=O)cc1
  9%	-18	-0.2	-12%	-1.4%	24	0.6
Cc1cc(C)c(C(=O)NC2CC(C)(C)Cc3c2cnn3-c2ccccc2)o1 (configuration not stated)
  2%	-9	1.2	1.6%	4.8%	-8	nt
Cc1ccc(-c2csc(N3CCN(c4cc5c(cc4Cl)nc(-c4ccncc4)n5CCN4CCCCC4)CC3)n2)cc1
  56µM*	-9	-0.6	-29%	1.4%	2	0.8
Cc1cc(NC(=O)c2sccc2C)n(-c2nc3ccccc3[nH]2)n1
  8%	3	0.0	nt	9.6%	6	0.2
COc1ccc2nc(NCc3ccccc3)[nH]c2c1
  13%	4	-0.7	-1.7%	16µM*	-1	3.8
COc1ccc(CC(NC(C)=O)C(=O)NC2CCN(C(=O)NCc3ccccc3)CC2)cc1 (configuration not stated)
  15%	-10	0.4	-2.1%	5.9%[38.3 µM]	4	-1.3
COc1cc(OC)cc(C(=O)Nc2ccc(S(=O)(=O)Nc3nc(C)cc(C)n3)cc2)c1
  5%	0	1.8	nt	-1.0%	26	2.0
O=C(NCCN1CCN(c2cccc(Cl)c2)CC1)Nc1ccccc1
  15%	-13	-0.3&-0.4	-4.1%&-3.7%	-1.0%&1.0%	8&-4	0.6
CC(=O)N1CC[n+]2c(-c3ccc([N+](=O)[O-])cc3)csc21
  5.6µM*	6	0.5	nt	-0.9%	-5	-1.4
O=C(Nc1c(C(=O)c2ccccc2)oc2ccccc12)c1ccc(F)cc1
  nt	nt	0.0	-10%	7.5%	7	nt

Continuation:
Values run as follows: Sfp inh	TRPV1 PAM	TRPML1 ag	ClpP mod	PINK1 modulator	TRPML1 inh	Menin MLL FP FL
O=C(c1cnn(-c2ccc(F)cc2)c1-n1cccc1)N1CCN(c2ccc(F)cc2)CC1
  nt	nt	1.6	2.1%	-1.7%	10	nt
CC1Cc2ccccc2N1C(=O)CSc1nccc(=O)[nH]1 (configuration not stated)
  16%	14	-0.6	nt	2.0%	9	0.8
COc1ccc(C2=C(Nc3ccc(C)cc3C)c3ccccc3C2=O)cc1
  nt	nt	-0.7	-6.3%	2.4%	51	nt
COc1ccc(C(=O)/C=C/c2ccccc2)c(O)c1
  20µM*	-20	nt	1.2%	-1.1%	nt	4.9
CCOC(=O)/C(C#N)=C\N(C)C
  25%	1	0.0	-0.4%	2.1%	-11	3.0
COc1ccc(OC)c(S(=O)(=O)N/N=C\c2ccc3c(c2)OCO3)c1
  5%	9	1.1	-0.1%	-0.1%	-1	2.1
O=C(CCCOc1ccccc1)Nc1cccc([N+](=O)[O-])c1
  10%	-12	-0.6	nt	-0.4%	3	2.0
CCOCCn1c(C)c(C(=O)OCC)c2cc(O)c3ccccc3c21
  nt	-14	1.0	-7.3%	11%	-1	nt
Cc1cccc(C(=O)Nc2ccc3c(c2)ncn3C)c1
  10%	-7	-0.2	-2.5%	3.5%	-6	0.9
O=C(Nc1ccccc1F)c1ccc2c(c1)OCO2
  -1%	-26	-0.5	nt	1.8%	-16	0.2
COc1ccc(NC(=O)C2=C(C)Nc3nc(SCc4ccc(C)cc4C)nn3C2c2cccc(OC)c2OC)cc1 (configuration not stated)
  nt	nt	-0.7	81%	7.1%	13	nt
CC(OC(=O)c1ccc(S(=O)(=O)N(C)C)cc1)C(=O)Nc1ccc(Cl)cn1 (configuration not stated)
  20%	2	0.2	nt	-1.1%	2	-1.6
CCOC(=O)CNC(=O)CSc1ncccc1-c1nc2ccccc2[nH]1
  12%	-7	0.5	nt	0.9%	8	2.2
CC(=O)Nc1ccc(S(=O)(=O)NCCC(=O)OCc2ccc([N+](=O)[O-])cc2)cc1
  23%	-6	-0.7	-1.3%	0.2%	18	nt
OCCOCCNc1ncnc2c1cnn2-c1ccccc1
  20%	1	-0.8	?	0.2%	6	1.4
CC(Sc1nnc(COc2ccc(Cl)cc2)o1)C(=O)Nc1ccc(N2CCOCC2)cc1 (configuration not stated)
  nt	7	0.6	-3.5%	-6.2%	3	nt
O=C(CSc1nnc(CNc2ccc(F)cc2)o1)N1c2ccccc2Sc2ccccc21
  16%	-1	1.4	-0.6%	5.3%[38.3 µM]	-4	8.8
CCCn1c(=O)c2ccccc2n2c(SCc3c(C(=O)OCC)oc4ccccc34)nnc12
  ?	-13	1.1	1.2%	?	43	3.8
CC1(C)Cc2c(sc3nc(SCC(=O)NCc4ccccc4)n(-c4ccccc4)c(=O)c23)CS1
  2%	3	0.2	9.5%	?	-7	-0.1
O=c1[nH]cc(F)c(=O)[nH]1
  4%&7%&18%&16%	-6	1.5	-2.8%	-0.3%	-3	-4.1&-2.4&-0.5&0.0&-1.9
O=C(O)c1ccccc1C(=O)OC1CCCC2CCCC21 (configuration not stated)
  nt	nt	0.2	-0.4%	0.4%	-6	nt
COc1ccccc1-c1cc(NCc2cccs2)ncn1
  -10%	nt	nt	nt	1.6%	nt	1.8
Cc1ccc2oc(=O)n(Cc3ccc(OC(C)C)cc3)c2c1
  -4%	4	4.7	4.5%	9.3%	3	2.9
CCN(CC)C(=O)c1csc(COCCO)n1
  nt	nt	0.0	1.7%	0.3%	2	nt
C=CCN1C(=O)C(CC(=O)Nc2ccccc2)SC1=Nc1c(C)n(C)n(-c2ccccc2)c1=O (configuration not stated)
  6%	5	0.5	-2.3%	-2.7%	7	0.9
COc1ccc(NC(=O)CS(=O)CC(=O)Nc2ccc(-n3cnnn3)c(C)c2)cc1 (configuration not stated)
  8%	20	1.0	nt	6.4%	26	-0.4
CC(C)(C)n1nc2c(c1NC(=O)c1ccc(Cl)c([N+](=O)[O-])c1)CS(=O)(=O)C2
  0%	-10	-0.8	-1.2%	-1.4%	2	-8.2
CC(C)(C)S(=O)(=O)N1C[C@@H]2CC/C=C\C/C=C\2[C@H]1CCO
  nt	nt	-0.7	0.6%	-0.5%	-12	nt
O=C(c1ccco1)N1CCN(c2nc3c(F)cc(F)cc3s2)CC1
  nt	nt	-0.9	-4.6%	4.1%	15	nt

Screening results: PubChem, National Center for Advancing Translational Sciences (NCATS)

The order is random; 4.4% or so of the library scored in one or more.
